GIV Gai3 FP: inhibitors of GIV GBA-motif binding to rat Galpha-i3. percent of control (FP), % (no concentration beside the values). 210,000 tested, 0.42% active. AID 1224905. Galpha-i3/FITC-GIV peptide fluorescence polarization, 90 min; stronger effect = lower value; scaled: aluminum fluoride 0%, vehicle 100%. P08753;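 active = replicate mean at 85% of control or lower, very high polarization wells dropped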;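 also: wells of about 15 µL received 100 nL stock; the first replicate is given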
Target sequence (P08753 whole entry, looked up): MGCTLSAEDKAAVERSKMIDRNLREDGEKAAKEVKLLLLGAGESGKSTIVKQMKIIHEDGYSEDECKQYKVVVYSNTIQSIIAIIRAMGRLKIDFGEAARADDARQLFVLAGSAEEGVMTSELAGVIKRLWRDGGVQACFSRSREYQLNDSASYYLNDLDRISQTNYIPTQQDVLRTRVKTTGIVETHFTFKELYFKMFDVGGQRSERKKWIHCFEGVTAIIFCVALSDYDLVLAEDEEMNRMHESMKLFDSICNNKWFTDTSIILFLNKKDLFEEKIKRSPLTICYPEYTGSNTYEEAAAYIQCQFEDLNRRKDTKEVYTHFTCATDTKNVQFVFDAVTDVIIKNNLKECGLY
HCMV NEC inh: cytomegalovirus nuclear egress complex inhibition | HTRF UL50-UL53 interaction, normalized percent inhibition | inhibition, % (test concentration not listed) | 190,000 tested, 0.15% active | AID 1918969;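 active = both replicates at 50% or more, plus weaker picks with an unusually low signal ratio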;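 also: stock transfer was 100 nL into about 20 µL; 0% = negative control wells and 100% = wells with untagged competitor protein; inactives centre near -12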
Sa growth 42C: S. aureus growth inhibition | S. aureus RN4220 growth, OD600, 20 h, 42 °C; stronger effect = lower value | relative growth, % (no concentration beside the values) | 170,000 tested, 0.53% active | AID 720641;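 active = growth at 42 °C up to 50% and 20 or more points under that at 30 °C, or under 10% at both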;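 also: 300 nL library stock went into each well; scaled to the means of positive and negative controls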
Sa growth 42C second temp: further read-out of Sa growth 42C, marked with its call; relative growth, %; measured here: growth at 30 °C;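 optical density after 20 h as mean of two plates; 100% = untreated growth and lower means inhibition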
The depositor's hits bear a star; · = no result given; & = joins results of further samples.

nr	compound	HCMV NEC inh	Sa growth 42C second temp
1	Cc1ccc(S(=O)(=O)Nc2ccccc2C(=O)NCc2ccco2)cc1	-30.1	67.3
2	O=C(c1cccc(S(=O)(=O)N2CCCC2)c1)N1CCN(c2ccccc2)CC1	-24.5	87.0
3	CCc1nn(CC(=O)NCCCc2ccccc2)c(=O)c2cc3ccccc3n12	-36.0	85.5
4	Cc1cc(SC(C)C(=O)O)nc2ccccc12 (centres undefined)	·	101.8
5	CCOc1ccc(N(CC(=O)OC)S(=O)(=O)c2ccc3c(c2)n(C)c(=O)c(=O)n3C)cc1	·	86.0
6	O=C(CSc1nc2[nH]c(=O)[nH]c(=O)c2s1)c1ccccc1	·	72.0
7	O=C1CCCc2cc(S(=O)(=O)N3CCC(CN4CCc5ccccc5C4)CC3)ccc2N1	-21.4	·
8	CCCCC(=O)Nc1c(-c2ccccc2)nc2ccccn12	-4.2	100.6
9	CCOC(=O)C1CCCN(C(=O)C2c3ccccc3Oc3ccccc32)C1 (centres undefined)	·	80.8
10	O=C(CNc1cc(Cl)ccc1N1CCOCC1)N1CCCc2ccccc21	-23.9	88.5
11	CCOC(=O)c1c(NC(=O)c2ccc(Cl)cc2)sc(C(=O)Nc2ccc(C)c(Cl)c2)c1C	-10.0	·
12	CCN1C=C/C(=C\c2cc[n+](CC)c3ccccc23)c2ccccc21	·	4.1*
13	CCOc1ccc(CNC(CC(C)C)C(=O)O)cc1 (centres undefined)	-24.1	86.4
14	COc1ccccc1CNC(=O)c1cn(C)c2ccc(S(=O)(=O)N3CCCCC3)cc2c1=O	0.7	100.2
15	Cc1ccc(NC(=O)N2CCCC2C(=O)NCC2CCCCC2)cc1 (centres undefined)	-23.3	88.5

nr	Sa growth 42C	GIV Gai3 FP
1	103.1	101.0
2	92.1	·
3	100.4	100.5
4	122.0	103.3
5	114.3	100.1
6	110.0	107.3
7	·	108.1
8	168.9	·
9	117.0	98.0
10	95.1	·
11	·	103.8
12	5.5*	102.6
13	90.1	99.7
14	97.3	113.7
15	76.1	100.2

The list continues:
nr	compound	HCMV NEC inh	Sa growth 42C second temp
16	c1ccc(N2CCN(c3ccccn3)CC2)cc1	-17.5	87.5
17	CCc1ccc(S(=O)(=O)Nc2cccc(-c3ccc(N4CCOCC4)nn3)c2)cc1	·	93.4
18	O=C(/C=C/c1cc(Cl)c2c(c1)OCCCO2)Oc1ccc(-c2nnco2)cc1	-34.3	86.3
19	O=C(O)CCC(=O)N1CCN(c2ncccc2C(F)(F)F)CC1	-30.0	87.7
20	CCOC(=O)c1sc2nc(C)n(CC(=O)Nc3ccc(Oc4ccccc4)cc3)c(=O)c2c1C	-16.4	·
21	CC(CC(=O)N1CCCc2ccccc21)S(=O)(=O)c1ccc2c(c1)NC(=O)CO2 (centres undefined)	-10.3	86.2
22	CCN1CCN(c2cc(C)c3cc(NC(=O)/C=C/c4ccc(C)cc4)ccc3n2)CC1	-19.9	85.0
23	COc1ccccc1C(=O)COC(=O)c1ccccc1C(F)(F)F	-14.8	90.3
24	CCSc1ncnc2c1sc1nc3c(cc12)COC(C)(C)C3	·	89.9
25	Cc1nnc(SCc2ccccc2Cl)c2cc3sccc3n12	·	100.3
26	CCOC(=O)c1c(-c2ccc(OC)cc2)oc2ccc(OC(=O)N3CCOCC3)cc12	19.8	107.6
27	COc1cccc(NC(=O)c2cc3c(=O)n(C)c4ccccc4c3n2C)c1	-23.7	84.7
28	COc1cc(OC)cc(C(=O)Nc2ccc3oc(-c4ccc(Cl)cc4)nc3c2)c1	-30.3	84.5
29	Cc1ccc(NC(=O)CN(C)S(=O)(=O)c2ccc3c(c2)CCC(=O)N3)c(C)c1	-29.5	86.1
30	CN1CCN(C(CNC(=O)C(=O)Nc2ccc(F)cc2F)c2ccc3c(c2)OCO3)CC1 (centres undefined)	·	85.7

nr	Sa growth 42C	GIV Gai3 FP
16	106.5	·
17	130.9	103.5
18	89.8	·
19	94.9	101.4
20	·	95.9
21	104.2	102.2
22	85.3	102.3
23	101.4	·
24	103.3	106.6
25	91.4	112.1
26	128.0	112.7
27	111.0	107.6
28	97.7	111.1
29	86.6	102.6
30	117.8	97.8

(more compounds)
nr	compound	HCMV NEC inh	Sa growth 42C second temp
31	CC(=O)Oc1cccc(O)c1	-48.0	85.6
32	Cc1ccccc1C(=O)Nc1nonc1C	-21.6	·
33	O=C1CC2(CC(=O)Oc3cc(O)ccc32)c2ccc(O)cc2O1	-4.3	99.6
34	O=C(Nc1ncn[nH]1)/C(=C/c1ccc(Cl)cc1)c1ccc(F)cc1	-40.3	89.0
35	CCOc1cc(C=C2C(=O)NC(=O)NC2=O)cc(Br)c1OCCOc1ccccc1OC	-7.5	·
36	Cc1ccc(CNS(=O)(=O)c2cc(CN3C(=O)C4CCCCC4C3=O)ccc2C)cc1 (centres undefined)	6.8	·
37	O=C(NCc1ccncc1)c1cn(-c2ccccc2)nc1-c1cccs1	-19.5	81.2
38	N=c1oc2ccc(Br)cc2cc1-c1nc(-c2cc3ccccc3oc2=O)cs1	-18.6	·
39	CCOC(=O)c1cccc(NC(=O)CCc2c(C)nn(-c3ccc(N4CCCCC4)nn3)c2C)c1	·	85.5
40	Cc1ccc(/C=C2\SC(=S)N(C(Cc3ccccc3)C(=O)O)C2=O)cc1 (centres undefined)	-29.7	·
41	O=C(Nc1ccccc1)Nc1nc(CC(=O)N2CCc3ccccc32)cs1	-3.9	·
42	Cc1ccc(NC(=O)CSc2nccn2-c2ccccc2)cc1	-3.4	96.5&55.1
43	COc1ccc(NC(=O)CC2CC3CCC2C3)cn1 (centres undefined)	-4.1	105.3
44	CCCc1c(C(=O)Nc2cc(F)ccc2F)cnn1C	-0.3	94.6
45	CN1C(=O)N(C)C2OC3OC4C(OC3OC21)N(C)C(=O)N4C (centres undefined)	1.4	88.0

nr	Sa growth 42C	GIV Gai3 FP
31	88.5	·
32	·	101.2
33	95.4	105.0
34	82.1	·
35	·	101.5
36	·	98.8
37	90.8	·
38	·	100.9
39	94.2	97.6
40	·	107.9
41	·	104.7
42	96.5&76.5	106.2&105.2
43	109.6	·
44	89.0	98.9
45	89.9	110.6

Continuation:
nr	compound	HCMV NEC inh	Sa growth 42C second temp
46	COc1ccc2oc(-c3ccccc3)cc(=O)c2c1	-36.9	77.2
47	COc1ccc(-c2nc(Nc3ccc4c(c3)OCCO4)c3ccccc3n2)cc1OC	33.6*	·
48	CC(=O)NC1(c2ccccc2)CCN(Cc2nnnn2C(C)(C)C)CC1	-1.4	82.5
49	COC(=O)c1ncn2c1C(=O)N(Cc1cccc(Cl)c1)C(C)(C(=O)NC1CCCC1)C2 (centres undefined)	-11.0	·
50	CCn1c(SCc2ccc(F)cc2Cl)nc(=O)c2c(C(=O)OC)cc(C3CC3)nc21	·	97.5
51	O=S(=O)(NCc1ccc(Cl)cc1)c1ccc2[nH]c3c(c2c1)CCCC3	2.1	91.2
52	Cc1cc2n(n1)CCC(=O)N2CCCC(=O)NCCc1ccc(Cl)cc1	-7.9	·
53	Cc1ccc(Cl)cc1NC(=O)CN1C(=O)CCCc2ccccc21	5.7	·
54	O=C(NCCCc1nc2ccccc2n1Cc1c(F)cccc1Cl)C1CCCCC1	-19.1	83.8
55	C=CCNC(=O)Cn1nc(N2CCN(c3ccccc3)CC2)ccc1=O	-32.8	·
56	COc1ccc(N2C(=O)CSc3c(c(C)nn3-c3ccccc3)C2C(=O)NC2CCCC2)cc1 (centres undefined)	-21.9	·
57	O=c1[nH]c2cc3c(cc2c(=O)n1Cc1nc(-c2ccccc2Br)no1)OCO3	1.4	·
58	COc1ccc([C@H]2[C@@H](C#N)[C@H](C#N)N3CCCN23)cc1	-2.7	89.8
59	C#CCOC(=O)C1C2C=CC(C2)C1C(=O)O (centres undefined)	7.1	91.9
60	CC(C)(C)c1ccc(C(=O)Nc2sc3c(c2C#N)CCC(C(C)(C)C)C3)cc1 (centres undefined)	2.6	89.4

nr	Sa growth 42C	GIV Gai3 FP
46	94.0	104.4
47	·	100.7
48	97.5	105.5
49	·	103.0
50	104.1	100.2
51	104.7	106.8&102.3
52	·	105.6
53	·	114.4
54	103.8	105.7
55	·	105.7
56	·	105.3
57	·	111.9
58	101.5	·
59	104.0	97.2
60	95.9	105.6

Sorted by formula weight (lowest first): part of the list above
nr	compound	HCMV NEC inh	Sa growth 42C second temp
34	O=C(Nc1ncn[nH]1)/C(=C/c1ccc(Cl)cc1)c1ccc(F)cc1	-40.3	89.0
52	Cc1cc2n(n1)CCC(=O)N2CCCC(=O)NCCc1ccc(Cl)cc1	-7.9	·
38	N=c1oc2ccc(Br)cc2cc1-c1nc(-c2cc3ccccc3oc2=O)cs1	-18.6	·

nr	Sa growth 42C	GIV Gai3 FP
34	82.1	·
52	·	105.6
38	·	100.9

Next compounds follow.
nr	compound	HCMV NEC inh	Sa growth 42C second temp
61	CCCC(C)C(=O)N1CCN(c2ccc(F)cc2)CC1 (centres undefined)	-12.9	97.2
62	O=C(OCc1cc(=O)n2nc(-c3cccs3)sc2n1)c1ccc(F)cc1	·	81.5
63	Cc1nn(-c2ccccc2)nc1CNC(=O)CC(C)(C)C	-21.3	95.1
64	c1ccc(-c2cc(NC3CC3)n3cnnc3n2)cc1	-28.9	·
65	CCOC(=O)c1oc2ccccc2c1CN1CCN(C)CC1	-20.6	80.1
66	Cc1ccc(NC(=O)c2c(NC(=O)Cc3ccccc3)sc3c2CCCC3)cc1	-12.6	87.0
67	COc1ccc(C(=O)NC2(C(F)(F)F)C(=O)NC(C)=C2C#N)cc1OC (centres undefined)	·	87.4
68	O=S(=O)(c1ccccc1)c1ccc(Br)cc1	·	90.2
69	COc1ccc(CCNC(=O)C(=O)NCC(c2cccs2)S(=O)(=O)c2ccc(C)cc2)cc1 (centres undefined)	·	91.4
70	O=C1CNC(=S)N1C1CCCCC1	-3.6	76.7
71	c1csc(COc2ccccc2CNC2CCCCC2)c1	-0.2	83.6
72	Clc1ccc(-n2cc(-c3ccccc3)c3c(NC4CC4)ncnc32)cc1	4.8	·
73	O=C(O)c1cc(Br)ccc1NS(=O)(=O)c1cccc2nsnc12	-78.7	·
74	CN(C)S(=O)(=O)c1ccc2c(c1)N(CC(=O)NCc1ccccc1)C(=O)C1CCCCN21 (centres undefined)	·	83.5
75	Cc1c(Cl)cccc1Nc1nnc(C)c(=O)[nH]1	-21.7	·
76	COc1ccc(OC)c(-c2nc(Nc3ccccc3C)sc2CC(=O)O)c1	3.1	92.8
77	O=C(O)/C=C/C(=O)NCc1cccc(Cl)c1	-16.4	94.5

nr	Sa growth 42C	GIV Gai3 FP
61	100.8	98.2
62	76.7	104.9
63	96.2	108.3
64	·	108.7
65	91.7	105.4
66	84.3	108.3
67	98.2	98.6
68	109.8	104.3
69	96.1	98.3
70	108.0	·
71	100.3	103.3
72	·	110.3
73	·	106.0
74	70.0	100.5
75	·	101.3
76	111.6	109.6
77	90.8	103.0

Looked up above.
For GIV Gai3 FP, `CCCC(C)C(=O)N1CCN(c2ccc(F)cc2)CC1` (centres undefined) is entered as 98.2
For GIV Gai3 FP, `O=C(O)/C=C/C(=O)NCc1cccc(Cl)c1` is entered as 103.0
For Sa growth 42C second temp, `COc1ccc(CCNC(=O)C(=O)NCC(c2cccs2)S(=O)(=O)c2ccc(C)cc2)cc1` (centres undefined) is entered as 91.4

Entries of single compounds as entered above. Screens in order: HCMV NEC inh | Sa growth 42C second temp | Sa growth 42C | GIV Gai3 FP
c1csc(COc2ccccc2CNC2CCCCC2)c1 across the screens: -0.2 | 83.6 | 100.3 | 103.3
O=S(=O)(c1ccccc1)c1ccc(Br)cc1 across the screens: · | 90.2 | 109.8 | 104.3
COc1ccc(OC)c(-c2nc(Nc3ccccc3C)sc2CC(=O)O)c1 across the screens: 3.1 | 92.8 | 111.6 | 109.6
COc1ccc(C(=O)NC2(C(F)(F)F)C(=O)NC(C)=C2C#N)cc1OC (centres undefined) across the screens: · | 87.4 | 98.2 | 98.6
Clc1ccc(-n2cc(-c3ccccc3)c3c(NC4CC4)ncnc32)cc1 across the screens: 4.8 | · | · | 110.3

Screens: PubChem, ICCB-Longwood Screening Facility, Harvard Medical School
